Bioassay records deposited in PubChem by several laboratories.
Yeast UUG start: alters start codon recognition fidelity in yeast | activity score, % at 18.7 µM | S. cerevisiae UUG-firefly luciferase reporter, luminescence/redox ratio | hit rate 0.13% among 350,000;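 active means replicate mean at a twofold rise or more, about +100% in these data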;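 further: firefly luciferase made from a UUG start codon reports start codon fidelity; reporter light over untreated wells divided by growth signal over untreated wells; some hits fall short of that in this replicate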
Rce1 inhib: inhibitors of yeast Ras-converting enzyme; hit rate 0.27% among 290,000; yeast membranes, quenched prenylated peptide cleavage fluorescence; Q03530; calls only;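 active means fall in fluorescence gain of 50% or more versus controls, with final raw signal at or below 3038400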;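 further: plate controls were neutral control wells for no effect and wells lacking membranes for full effect; tested at 10 µM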
Target sequence (Q03530 whole entry, looked up): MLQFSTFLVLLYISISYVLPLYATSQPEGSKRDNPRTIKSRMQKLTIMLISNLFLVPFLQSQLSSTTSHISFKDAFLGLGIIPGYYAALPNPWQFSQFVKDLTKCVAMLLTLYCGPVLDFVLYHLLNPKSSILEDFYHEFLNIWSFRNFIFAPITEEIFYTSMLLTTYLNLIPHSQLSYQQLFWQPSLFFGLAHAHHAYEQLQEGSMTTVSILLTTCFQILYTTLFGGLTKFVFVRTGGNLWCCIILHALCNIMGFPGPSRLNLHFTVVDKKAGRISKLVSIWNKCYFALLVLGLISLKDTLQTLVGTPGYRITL
HIV Env fusion: blocks HIV Env-driven cell-cell fusion | inhibition, % at 12.3 µM | hit rate 1.1% among 360,000 | HeLa-JRFL Env/CEM21 cell fusion, luciferase | AID 651610;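 active means mean replicate inhibition score of at least 50 and every replicate individually at or above 50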;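 further: 0% = plate neutral controls and 100% = maraviroc near 300 nM; one replicate is shown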
MT1-MMP act inh: blocks activation of human MT1-MMP | P50281 | HT1080 RFP-PRO-GFP cells, GFP/RFP ratio fluorescence, overnight; percent of plate control window, DMSO zero | GFP/RFP ratio change, % at 20 µM | hit rate 0.061% among 360,000 | AID 651647;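 active means GFP/RFP ratio change of at least 30% with cell ATP level not reduced by more than half and red fluorescence within 50% of control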; further: strong numbers were not always called active
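Compound: 20 µM single dose, 1% DMSO / System: HT1080 RFP-PRO-GFP cells / Controls: DMSO and RFP-L50D-GFP cell wells / Read-out basis: GFP/RFP fluorescence ratio / Schedule: overnight compound exposure at 37 °C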
PABP polyA inh: PABP-poly(A) binding inhibition | AID 2014 | inhibition, % at 35 µM | P11940 | hit rate 1% among 290,000 | PABP-poly(A) RNA binding, fluorescence polarization;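 active means 50% or more with normal probe brightness, or confirmed in later tests; about a fifth of its hits are not listed in these tables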;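 further: calls also rest on retests at 20 µM and on dose response follow-up; controls were probe without protein and protein plus probe with vehicle; some compounds called inactive have numbers as strong as hits; many hits fall short of the cut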
CSC inhib: cancer stem cell inhibition. cancer stem cell-like cells viability, luminescence. inhibition, % at 7.5 µM. hit rate 1.1% among 300,000. AID 2717;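 active means mean at 75% or more and at least half the replicates too; tested in HMLE shEcad cells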;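 further: 0% = median of negative and 100% = median of positive control wells; the first replicate is given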
eIF4H FP inh: inhibitors of RNA binding by human eIF4H; Q15056; eIF4H fluorescence polarization binding assay; inhibition, % at 35 µM; hit rate 0.94% among 290,000; AID 2012;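 active means 50% or more with normal probe brightness, or confirmed in later tests; about a fifth of its hits are not listed in these tables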;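 further: calls also rest on retests at 20 µM and on dose response follow-up; 0% = protein and probe with vehicle and 100% = probe without protein; strong numbers were not always called active; many hits fall short of the cut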
eIF4H FP inh retest: also measured in eIF4H FP inh; calls as there; inhibition, %; compound at 20 µM; confirmation average;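 mean of two retest wells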
PABP polyA inh retest: also measured in PABP polyA inh; calls as there; inhibition, %; compound at 20 µM; confirmation repeats;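 mean of two retest wells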
MT1-MMP act inh RFP: also measured in MT1-MMP act inh; calls as there; RFP signal change, %; measured here: RFP expression control read;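 0 = vehicle wells; hits needed this value within 50% of zero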
* hit, by the source's call; i = inactive; nt = not tested or not shown. Not all compounds are listed (hit frequency here may not be typical).

SMILES	Yeast UUG start	Rce1 inhib	HIV Env fusion	MT1-MMP act inh	MT1-MMP act inh RFP	PABP polyA inh	CSC inhib	eIF4H FP inh	others
COc1ccc(C(=O)Nn2c(CCC(=O)O)ccc2-c2ccc(C)cc2)cc1OC	nt	i	18	-4	1	7	4	-6
O=C(CN1CCN(c2ccc(C(F)(F)F)cn2)CC1)NCc1ccc2c(c1)OCO2	nt	i	4	11	-6	8	-6	4
CSCCC(NC(=O)c1ccco1)C(=O)NCC(C)(C)N1CCOCC1 (stereo unspecified)	-24	nt	-6	0	2	nt	-6	nt
COc1ccc(C(=O)Nc2ncccc2C)cc1S(=O)(=O)N1CCOCC1	nt	i	nt	-3	4	nt	10	nt
CC(C)c1ccc(NC(=O)C2CCN(S(=O)(=O)c3ccc4c(c3)C(C)(C)C(=O)N4C)CC2)cc1	-17	i	26	-2	-14	5	3	-4
CCOC(=O)c1cc(C(=O)NC(C)c2ccccc2)c(C)[nH]c1=O (stereo unspecified)	nt	i	-3	0	0	-1	-7	-7
CCCc1sc(C(=O)Nc2nnc(C3CC3)s2)cc1CC	-15	nt	-13	1	-1	nt	nt	nt
CCOC(=O)c1c(-c2cccc([N+](=O)[O-])c2)csc1NC(=O)C1CC1	-8	i	13	-2	-5	-3	9	-5
Cn1c(NCc2ccco2)nc2ccccc21	-6	i	-41	-1	1	-11	-7	-13
CC(CNC(=O)CCCn1c(=O)c2cccn2c2cccnc21)c1ccccc1 (stereo unspecified)	-12	nt	17	-2	0	nt	nt	nt
CCC1CCCCN1CCCNC(=O)Cn1cc2c(n1)-c1c(oc(C(=O)N3CCCC3)c1C)CC2 (stereo unspecified)	nt	i	-2	-3	-1	8	-1	24
CC(NC(=O)Nc1ccccc1)C(c1cccs1)N1CCN(C)CC1 (stereo unspecified)	4	i	-2	-3	2	-3	-10	9
Cc1cc(C)n(C(=O)CNC(=O)c2cccc(Cl)c2)n1	-15	i	-5	-5	-2	-3	nt	41
CCOc1ccc(C(=O)N2CCCCCC2)cc1	-3	i	nt	-1	0	6	-4	6
Cc1ccc(S(=O)(=O)N/N=C/c2ccc3nccnc3c2)cc1	-16	i	10	0	3	9	6	-3

The final 4 compounds of the part above lead into the next:
SMILES	Yeast UUG start	Rce1 inhib	HIV Env fusion	MT1-MMP act inh	MT1-MMP act inh RFP	PABP polyA inh	CSC inhib	eIF4H FP inh	others
CC(NC(=O)Nc1ccccc1)C(c1cccs1)N1CCN(C)CC1 (stereo unspecified)	4	i	-2	-3	2	-3	-10	9
Cc1cc(C)n(C(=O)CNC(=O)c2cccc(Cl)c2)n1	-15	i	-5	-5	-2	-3	nt	41
CCOc1ccc(C(=O)N2CCCCCC2)cc1	-3	i	nt	-1	0	6	-4	6
Cc1ccc(S(=O)(=O)N/N=C/c2ccc3nccnc3c2)cc1	-16	i	10	0	3	9	6	-3
O=C(NCCS(=O)(=O)NCc1ccccc1Cl)c1ccccc1	-1	i	nt	5	3	nt	-8	nt
COC(=O)c1ccc(N2CCN(C)CC2)c(NC(=O)COc2ccccc2)c1	-13	i	1	-2	2	19	4	0
COc1ccc(C(=O)COC(=O)CCNS(=O)(=O)c2ccccc2)cc1Br	11	i	-6	0	1	-14	0	-14
c1c2c(cc3sc(N4CCOCC4)nc13)OCO2	-42	i	-147	2	-1	9	22	0
COc1c(C(=O)Nc2nnc(C3CC3)s2)csc1Cl	-25	i	-30	-3	3	6	-6	-6
CC(NC(=O)C(C)N1CCN(Cc2ccccc2)CC1)c1ccccc1 (stereo unspecified)	1	i	-6	-2	1	2	0	-4
COc1ccc(C#Cc2c(-c3ccc(OC)cc3)oc3ccc(-c4ccc5c(c4)OCO5)cc23)cc1	-10	i	15	6	5	nt	-7	nt
O=C(CCSCc1cccc(Cl)c1)NCCc1ccccc1	nt	i	2	-1	1	-6	1	-6
CCOC(=O)N1CCN(C2=C(NS(=O)(=O)c3ccc(Br)cc3)C(=O)c3ccccc3C2=O)CC1	2	nt	11	-2	12	nt	nt	nt
CC(=O)Nc1ccc(NC(=O)C(C)OC(=O)CCC2CCCCC2)cc1 (stereo unspecified)	-2	i	-5	-1	1	6	-6	-4
CCOC(=O)CC(=O)Nc1ccc(C)cc1	-10	i	-11	5	9	6	nt	6
CC(=O)OC1CCC2(C)C(=CCC3C4CC(=O)N(O)C(=O)C4(C)CCC32)C1 (stereo unspecified)	2	nt	21	-4	0	nt	nt	nt
COc1ccc2[nH]c(C)c(CCN3C(=O)OC(C)(C)C3(C)O)c2c1 (stereo unspecified)	-4	i	-47	11	5	-8	-3	10
COc1ccc(N2C(=O)C3CCCN3C2c2cccc(Br)c2)cc1 (stereo unspecified)	-7	i	-4	1	3	7	0	-7
CCN(CC)C(=O)c1ccccc1NC(=O)CN1C(=O)c2ccccc2S1(=O)=O	0	i	9	0	-2	2	nt	-3

The list goes on, starting with the last 2 of the part before.
SMILES	Yeast UUG start	Rce1 inhib	HIV Env fusion	MT1-MMP act inh	MT1-MMP act inh RFP	PABP polyA inh	CSC inhib	eIF4H FP inh	others
COc1ccc(N2C(=O)C3CCCN3C2c2cccc(Br)c2)cc1 (stereo unspecified)	-7	i	-4	1	3	7	0	-7
CCN(CC)C(=O)c1ccccc1NC(=O)CN1C(=O)c2ccccc2S1(=O)=O	0	i	9	0	-2	2	nt	-3
CCCOc1ccc(C(=O)Nn2c(C)nc3ccccc3c2=O)cc1	-36	i	nt	4	1	4	7	5
COc1cc(NC(=O)C(C)Oc2ccccc2)c(OC)cc1NC(=O)c1ccccc1 (stereo unspecified)	12	i	nt	9	1	-7	-5	-13
CC(C)CC(NC(=O)C1CCCN1C(=O)CNC(=O)OCc1ccccc1)C(=O)O (stereo unspecified)	-3	i	10	-5	0	1	-6	0
CCCCn1c(N)c(N(CC)C(=O)c2cccs2)c(=O)[nH]c1=O	-4	nt	nt	-2	4	nt	-14	nt
CN(C(=O)c1ccc(NC(=O)Cc2ccc(NC(=O)C3CCCN(C(=O)C4CCCC4)C3)cc2)cc1)C1CCCC1 (stereo unspecified)	-20	nt	5	6	-2	nt	nt	nt
CCOc1cc(CN2CCN(CCOCCO)CC2)ccc1OC	-14	nt	nt	-2	6	25	3	-1
CCOC(=O)c1c(C)[nH]c(C)c1C(=O)COC(=O)CSc1ccc(C)cc1	-15	nt	nt	1	2	nt	-6	nt
O=C(O)c1cccc(CN2C(=O)SC(Nc3ccccc3)C2=O)c1 (stereo unspecified)	-14	i	-106	-1	8	5	-7	7
Cc1nn2c(NCCN3CCOCC3)c3c(nc2c1-c1ccccc1)CCCC3	-5	i	19	-2	-8	-1	-7	-5
Cc1ccc2c(c1)N(CC(=O)OCC(=O)NCc1ccccc1)C(=O)CO2	nt	i	-4	0	3	-6	10	-4
Cc1cc(NCc2ccc3c(c2)OCO3)n2nc(C)nc2n1	-12	i	2	3	0	14	20	5
CC(C)NC(=O)Cn1c(SCC(=O)N2CCc3ccccc3C2)nc2ccccc21	-7	i	1	-4	5	2	nt	-3
CCOC(=O)c1cc(-c2ccc(/C=N\n3cnnc3)o2)ccc1Cl	-28	i	nt	3	0	0	-7	-10
COc1ccc(-c2nc(-c3cccs3)c(-c3cccs3)[nH]2)cc1O	-15	i	nt	1	-3	2	70	-5
CC(C)OP(=O)(Nc1cccc2ccccc12)OC(C)C	-9	i	94*	0	-3	5	-6	-6
Cc1cc(Cl)ccc1OCC(=O)Nc1ccc2oc(=O)ccc2c1	3	i	0	2	-8	12	-11	18
CN(C)CCCN(C(=O)/C=C/c1cccs1)c1nc2ccc(F)cc2s1	-17	i	-33	-5	-2	-7	12	-10
Cn1ccc2c(N3CCC3)cc3c(c21)C1CCC3O1 (stereo unspecified)	-18	nt	10	2	3	nt	nt	nt
CCN(CC)CCCOC(=O)C(c1ccccc1)c1ccccc1	-13	i	nt	-1	4	16	-7	-2
CCN(CC)S(=O)(=O)c1ccc(NC2c3ccccc3C(=O)N2Cc2ccco2)cc1 (stereo unspecified)	20	i	-85	3	-5	-5	-8	-5
O=C(CC1CCCCC1)Nc1ccccc1-c1ccccc1	nt	i	-41	-1	1	-4	62	-10
COc1ccc(CCNC(=S)N2CCC(Cc3ccccc3)CC2)cc1OC	nt	i	34	0	-10	-13	11	-5
COc1ccc(NC(=S)NCc2ccc(Cl)cc2)c(OC)c1	-12	i	i	-2	0	11	nt	12
CC1CCCCC1N(C)C1CCN(C(=O)CNC(=O)/C=C/c2cccc(Cl)c2)CC1 (stereo unspecified)	-5	i	-8	5	7	2	31	-2
Cc1ccc(C(=O)NC(=S)N(C)C2CCCCC2)cc1	-28	i	-22	6	3	10	-3	3
CCS(=O)(=O)c1ccc2oc(SCC(=O)Nc3ccc(OC)cc3)nc2c1	nt	i	-24	4	-2	2	-3	5
C#CCn1cc[n+](CC(=O)N(C)C)c1	-7	i	nt	0	1	12	-3	-7
CC1CCN(CC(=O)Nc2cccc(C(=O)Nc3cccc(C(F)(F)F)c3)c2)CC1	nt	i	24	-1	-10	-4	44	-14
CC(NC(=O)COc1ccccc1Cl)c1ccccc1 (stereo unspecified)	-2	i	4	2	-5	1	7	-5
COc1cc(/C=C/c2cc(C(=O)O)c3ccccc3n2)ccc1OC(F)F	nt	i	-104	-5	6	0	19	1
CC(=O)c1ccc(Nc2cc(C)nc3ccc(C)cc23)cc1	nt	i	-9	-2	-3	-14	nt	-9
O=C(NCc1ccccc1)/C(=C/c1cccc([N+](=O)[O-])c1)NC(=O)c1ccco1	-19	i	-1	-3	-2	1	-3	0
Cn1c(=O)c2cc3ccccc3nc2n(C)c1=O	nt	i	5	-2	-1	-6	-3	4
c1ccc(Cn2c(SCc3nc4ccccc4s3)nnc2-c2ccco2)cc1	-18	i	nt	-11	7	17	26	63	eIF4H FP inh retest=3;PABP polyA inh retest=5
Cc1ccc([N+](=O)[O-])cc1S(=O)(=O)N1CCNCC1	nt	i	11	-5	2	4	-8	-5
COCCNC(=O)C1Cc2c(-c3cccc(NC(C)=O)c3)ccnc2O1 (stereo unspecified)	-12	nt	9	1	0	nt	nt	nt
O=C(O)C1CC=CCC1C(=O)Nc1ccc(F)c(F)c1 (stereo unspecified)	-9	i	nt	4	4	4	-20	-3
COc1ccc(NC(=O)Nc2sc(=S)n(C)c2C)cc1	nt	i	-2	1	7	3	-1	11
CCOc1cc(N2CCOCC2)c(OCC)cc1NC(C)C(=O)N1CCN(CC)CC1 (stereo unspecified)	nt	i	4	10	8	-8	nt	8
O=C(CCS(=O)(=O)c1ccccc1)Nc1ncc([N+](=O)[O-])s1	1	i	12	1	-4	9	17	7
O=C1OCCN1c1ccccc1	-5	nt	0	2	4	nt	nt	nt
CCCOc1ccc(N2C(=O)CC(N(Cc3ccco3)C(C)=O)C2=O)cc1 (stereo unspecified)	nt	i	8	-1	2	3	-14	11
O=C(NC1(C(F)(F)F)C(=O)Nc2c1c(=O)[nH]c(=O)n2Cc1ccccc1)c1ccc(Cl)cc1 (stereo unspecified)	4	i	2	6	2	15	-9	8
Cc1cnc(NC(=O)COc2ccccc2Cl)s1	-68	i	-92	22	4	-1	nt	-8
CCOC(=O)[C@H]1[C@H]2COc3ccc(OC)cc3[C@@H]2N2C(=O)CN(Cc3ccc(F)cc3)C(=O)[C@@]12C	-15	nt	-37	-2	2	nt	-17	nt
CC(NC(=O)c1cc(S(=O)(=O)N(C)C)ccc1Cl)c1ccc(-n2ccnc2)cc1 (stereo unspecified)	-11	i	-9	-1	0	-2	3	-7
O=C(c1ccc2snnc2c1)N1CCCC1	nt	nt	nt	-2	2	-5	nt	-3
CC(C)Cn1c(CNC(=O)c2ccccc2)nc2ccccc21	-7	i	-7	-4	-3	4	2	-6
COc1ccccc1NC(=O)C1=C(C)Nc2nc(-c3ccccc3)nn2C1c1ccccn1 (stereo unspecified)	-23	i	-17	7	-4	0	-7	-6
